Mtb bLac sens = beta-lactam sensitization of Mtb H37Rv; M. tuberculosis H37Rv growth with meropenem, percent inhibition; hits of this screen are not shown here; inhibition, % at 25 µM; 0.27% of 330,000 active; AID 434955;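 active = about 74% or more and at least 40 points above the plate without the antibiotic, then above 30% in a dose series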;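 also: growth measured after seven days incubation then overnight dye step; 0% = bacteria only wells and 100% = bacteria with antibiotic; twin plates without the antibiotic show which effects depend on it; some results filed as inactive read as strong as hits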
RecA intein inh = inhibitors of M. tuberculosis RecA intein splicing; P9WHJ3; AID 2221; 0.75% of 290,000 active; inhibition, %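 (about 9 µM by stock and volumes)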; cell-free RecA intein splicing, fluorescence; in the data active = inhibition above about 30%;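 also: 0% = vehicle wells and 100% = reference inhibitor control wells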
Target sequence (P9WHJ3 whole entry, looked up): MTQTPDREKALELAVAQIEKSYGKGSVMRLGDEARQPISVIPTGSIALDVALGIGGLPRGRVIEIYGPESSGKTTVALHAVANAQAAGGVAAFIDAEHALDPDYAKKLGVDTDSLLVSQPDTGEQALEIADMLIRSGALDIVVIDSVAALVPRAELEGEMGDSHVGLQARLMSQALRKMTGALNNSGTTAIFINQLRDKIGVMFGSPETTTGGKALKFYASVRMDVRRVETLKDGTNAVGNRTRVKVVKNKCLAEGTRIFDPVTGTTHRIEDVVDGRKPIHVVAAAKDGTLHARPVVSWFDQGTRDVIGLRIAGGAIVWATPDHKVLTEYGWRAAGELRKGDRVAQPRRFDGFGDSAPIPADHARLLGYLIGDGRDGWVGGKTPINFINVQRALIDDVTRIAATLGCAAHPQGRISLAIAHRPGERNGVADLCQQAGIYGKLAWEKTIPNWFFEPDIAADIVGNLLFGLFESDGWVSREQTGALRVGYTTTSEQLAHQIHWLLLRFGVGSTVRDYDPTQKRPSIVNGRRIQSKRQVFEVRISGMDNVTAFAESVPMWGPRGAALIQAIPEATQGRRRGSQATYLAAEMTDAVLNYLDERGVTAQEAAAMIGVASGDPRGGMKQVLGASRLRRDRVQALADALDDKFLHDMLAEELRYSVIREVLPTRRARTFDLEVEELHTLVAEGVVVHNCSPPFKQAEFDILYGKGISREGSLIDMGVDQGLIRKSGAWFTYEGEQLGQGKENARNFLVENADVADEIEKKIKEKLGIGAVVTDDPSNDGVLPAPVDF
The depositor's hits bear a star; . = not tested or not shown; & = joins results of further samples. These rows are one share of the data, so the mix of outcomes need not match the whole.

SMILES | Mtb bLac sens | RecA intein inh
COc1cccc(OCc2cc(C(=O)N3C[C@H]4C[C@@H](C3)c3cccc(=O)n3C4)no2)c1 | . | -0.6
CCc1sc(C(=O)Nc2nc(C)cs2)cc1C | . | 5.8
CN1C2CC(OC(=O)C(CO)c3ccccc3)CC1C1OC12 (stereo not drawn) | . | 0.5&-2.4
CCCCN(C(=O)c1ccc(S(=O)(=O)N2CCCCC2)cc1)C1CCS(=O)(=O)C1 (stereo not drawn) | . | 2.7
CCOc1ccc(/C=N/NC(=O)C(=O)N2CCCCCC2)c2ccccc12 | . | 3.4
CN(CC1CCOCC1)C(=O)CC1C(=O)NCCN1Cc1cccc(C(F)(F)F)c1 (stereo not drawn) | . | 1.0
CC(=O)c1cn(Cc2ccccc2F)c2ccccc12 | . | 0.9
C=CCOc1ccccc1CN1CCC(n2nccc2NC(=O)C2CC2)CC1 | . | -4.0
Cc1ccc(C(=O)NCCN2CCN(C(=O)c3ccc(C)c(C)c3)CC2)cc1C | . | -0.2
CSc1ccc(OCC(=O)Nc2ccc(N3CCOCC3)c(Cl)c2)cc1 | . | 0.2
CC(C)(C)c1ccc(Cn2nnc3c(=O)[nH]c(C4CCN(C(=O)c5ccco5)CC4)nc32)cc1 | . | 0.9
O=C(NCCN1CCN(c2ccccc2F)CC1)c1ccc2nc3ccccc3c(=O)n2c1 | . | -53
Cc1cc(NS(C)(=O)=O)c(=O)n(Cc2cccc(F)c2)c1 | . | 0.0
COC(=O)c1cc(NC(=O)CSc2ncn[nH]2)ccc1Cl | . | 1.4
Cc1ccc(CNC(=O)C2CCC(=O)N(CCc3cccc(F)c3)C2)s1 (stereo not drawn) | . | -2.3
CCCc1cc(=O)[nH]c2nnc(SCC(=O)Nc3nnc(CC)s3)n12 | . | 0.7
O=C(c1ccccc1)N1CCC(CC2CC(c3cccc(Br)c3)=NO2)(C(=O)NCC2CCCCC2)CC1 (stereo not drawn) | . | 8.6
O=C(Nc1cccc(O)c1)c1ccc(S(=O)(=O)N2CCCCCC2)cc1 | . | 1.9
Cc1ccc(C(CNS(=O)(=O)c2cc(F)ccc2F)N2CCN(C)CC2)cc1 (stereo not drawn) | . | 2.1
CC(C)n1nnnc1SCC(=O)Nc1cccc(F)c1 | . | 0.0
O=c1[nH]c(C2CCN(S(=O)(=O)c3cccc(Cl)c3)CC2)nc2c1nnn2Cc1ccccc1 | . | 6.1
Cc1ccccc1OCC(=O)Nc1ccc(S(=O)(=O)N2CCOCC2)cc1 | . | 0.8
O=C(CSc1nc(NS(=O)(=O)c2ccccc2)cc(=O)[nH]1)Nc1cccc(C(F)(F)F)c1 | . | -2.7
COc1ccc(C2=NN(C(=O)c3ccccc3)C(c3ccc(OC)c(OC)c3)C2)cc1OC (stereo not drawn) | . | -0.4
Cc1nn2c(N3CCOCC3)cc(C(C)(C)C)nc2c1-c1ccc(Cl)cc1 | . | -1.5
CCCc1cc(=O)oc2c(C)c(OC3CCCCC3=O)ccc12 (stereo not drawn) | . | -1.0
COc1cccc(CN2CCC(Oc3ccc(C(=O)NCc4ccccn4)cc3)CC2)c1O | . | -4.1
O=C(c1cccc(OC2CCN(Cc3ccc(F)cc3)CC2)c1)N1CCCC1 | . | -1.3
COc1ccccc1N(CC(=O)Nc1ccccc1C(=O)N1CCCC1)S(C)(=O)=O | . | 2.3
Cn1cc(Br)c(C(=O)N2CCCCCC2)n1 | . | -5.3
Cn1ccc(C(=O)N/N=C/c2ccncc2)n1 | . | 2.2
COc1ccc(S(=O)(=O)N2CCOC23CCN(S(=O)(=O)c2cccs2)CC3)cc1 | . | -0.1
Cc1ccsc1C(=O)NNC(=O)c1csc(N2CCOCC2)n1 | . | -4.8
COc1ccc(C2/C(=C(/O)c3ccc4c(c3)CC(C)O4)C(=O)C(=O)N2CCN2CCOCC2)cc1OC (stereo not drawn) | . | -0.8
O=C(CCN1C(=O)c2ccccc2S1(=O)=O)NCc1ccccc1Cl | . | 3.8
Cc1ccc(-c2nnc(N3CCOCC3)c3ccccc23)cc1S(=O)(=O)N(C)C | . | -0.9
COc1ccc(N2CCN(C3CCCN(C(=O)CCN4CCCCO4)C3)CC2)cc1 (stereo not drawn) | . | 3.4
COc1ccc(/C=C/C(=O)c2ccc(C(=O)/C=C/c3ccc(OC)c(OC)c3)cc2)cc1OC | . | -0.5
O=S(=O)(c1cccc2ccccc12)N1CCCCC1 | . | -1.2
CCc1c(C)sc(NC(=O)c2ccco2)c1C#N | . | -3.7
Cc1cc(C2C(=O)c3ccccc3C2=O)c(C)c(C)c1C | . | 0.1
CC(=O)NC(Cc1ccccc1F)C(=O)NC1CCN(S(=O)(=O)c2ccccc2)CC1 (stereo not drawn) | . | -0.2
O=C(NCc1ccc2c3c(cccc13)C(=O)N2)c1cccs1 | . | -12
O=C1C(Cl)=C(N2CCCCCC2)C(=O)N1c1ccc(Br)cc1 | . | 17
COc1ccc(O)c(/C=C(\C#N)C(=O)Nc2ccccn2)c1 | . | -25
COc1ccc(Nc2nc3c(C)cccn3c(=O)c2C=O)cc1 | . | 0.4
Cc1ccc(C(=O)Nc2c(C)cc(C)c3cccnc23)cc1 | . | 1.4
O=C1CCc2cc(S(=O)(=O)NCCc3ccc(Cl)cc3)cc3c2N1CC3 | . | 0.6
O=C1CCC(C(=O)N2CCN(c3cnccn3)CC2)CN1CCc1ccc(Cl)cc1 (stereo not drawn) | . | 2.1
COc1ccc(OC)c2nc(-c3ccc4c(c3)OCO4)ccc12 | . | -3.4
COc1ccc(-c2cc(C(=O)NN3CCOCC3)c3ccccc3n2)cc1OC | . | -3.2
O=C(Nc1ccccc1N1CCN(C(=O)c2ccccc2)CC1)c1ccc([N+](=O)[O-])o1 | . | -0.6
CCn1nc(C)cc1C(=O)N1CCCC(Nc2ccc(C(C)C)cc2)C1 (stereo not drawn) | . | -2.2
CCc1ccc2[nH]c(C(=O)Nc3ccc(Br)c(C)n3)cc2c1 | . | 0.0
COc1cc(C)ccc1OCc1cc(C(=O)N2CCCCCC2)no1 | . | 0.5
CC(=O)OCC(=O)[C@@]1(O)CCC2C3CCC4=CC(=O)CCC4(C)C3C(=O)CC21C (stereo partly drawn) | . | 1.5
COc1cccc(OCC(=O)NNC(=O)c2ccc3ccccc3c2O)c1 | . | -5.8
Cc1ccccc1CCNC(=O)C1CCC(=O)N(CCc2cccc(F)c2)C1 (stereo not drawn) | . | 4.2
COc1ccc(C(C(=O)NCC2CCCO2)N(C(=O)c2snc(C(N)=O)c2N)c2ccccc2)cc1OC (stereo not drawn) | . | -1.3
O=C(NCC1COCCO1)c1ccc(OC2CCN(CCc3ccccc3)CC2)cc1 (stereo not drawn) | . | -0.3

Taken from above:
RecA intein inh with `COc1cccc(OCC(=O)NNC(=O)c2ccc3ccccc3c2O)c1` : -5.8
RecA intein inh with `O=C1CCC(C(=O)N2CCN(c3cnccn3)CC2)CN1CCc1ccc(Cl)cc1` (stereo not drawn) : 2.1
RecA intein inh with `Cc1ccccc1CCNC(=O)C1CCC(=O)N(CCc2cccc(F)c2)C1` (stereo not drawn) : 4.2

(cont.)
SMILES | Mtb bLac sens | RecA intein inh
Cc1cccc(C)c1NC(=O)C(C)Sc1nnc(C)n1CC1CCCO1 (stereo not drawn) | . | -0.1
COc1ccc(NC(=O)C2CCCN2C(=O)Nc2ccc(OC)cc2)cc1 (stereo not drawn) | . | 0.9
Cn1c2ccccc2c2nnc(SCCN3CCOCC3)nc21 | . | -1.2
CC1CN(C(=O)c2ccc(CNS(=O)(=O)c3cccc(Cl)c3)cc2)CC(C)O1 (stereo not drawn) | . | -2.1
Cc1cccc(-c2cc(C(=O)Nc3ccncc3)c3ccccc3n2)c1 | . | -0.5
CCOc1ccccc1N(C)C(=O)c1cn(CC)c(=O)c2cc(OC)c(OC)cc12 | . | -0.6
COc1ccc(C=O)c2[nH]c3c(Cl)ncnc3c12 | . | -1.0
Cc1ccccc1N(C(=O)c1snc(C(N)=O)c1N)C(C(=O)NC1CCCC1)c1ccco1 (stereo not drawn) | . | -9.5
CCOC(=O)N1CCN(c2nc3ccc(C)cc3n3cnnc23)CC1 | . | -1.9
O=C(CCN1C(=O)C2C3CCC(C3)C2C1=O)Nc1ccc(F)cc1 (stereo not drawn) | . | -0.5
Cc1ccc(C)c(N2CCN(C3CCCC(C)C3)CC2)c1 (stereo not drawn) | . | 1.5
CCOc1ccc(C(=O)NCC2CCN(CC3CCCCC3)CC2)cc1 | . | -0.9
COc1ccc(C(=O)N2CCc3ccc(NC(=O)c4ccccn4)cc3C2)cc1F | . | 1.5
COc1cc(C(=O)Nc2ccc(NC(=O)C3CCCCC3)nc2)cc(OC)c1OC | . | 0.3
COc1ccc(OC)c(/C=C/c2[nH]c(=O)[nH]c(=O)c2[N+](=O)[O-])c1 | . | -0.1
COC(=O)c1cccc(Nc2c3c(nc4ccccc24)CCC3)c1 | . | 4.4
COc1cc(C2C(C(=O)c3cc4ccccc4o3)=C(O)C(=O)N2CCN2CCOCC2)ccc1OCCC(C)C (stereo not drawn) | . | 2.6
Cc1cc(Cl)c2oc(C(=O)N(C)Cc3nccn3C)c(C)c2c1 | . | -3.5
CCc1ccc(/C(C)=N/NS(=O)(=O)c2ccc(OC)cc2)s1 | . | -0.7
CCOCCCNC(=O)c1cn2c3c(ccc(Cl)c3c1=O)OC(C)C2 (stereo not drawn) | . | 0.5
CCCCN(C(=O)C1CCCC1)C1CCS(=O)(=O)C1 (stereo not drawn) | . | -1.2
CCCC(=O)Nc1ccc(S(=O)(=O)Nc2cc(OC)ncn2)cc1 | . | -2.6
Cc1nn(-c2ccccc2)cc1/C=N/NC(N)=S | . | 0.1
Cc1cc(C)c(C)c(S(=O)(=O)NCC(=O)Nc2ccccc2F)c1C | . | 0.6
Cc1ccc(OCC(=O)Nc2ccc(S(=O)(=O)N3CCOCC3)cc2)c(C)c1 | . | 0.9
CN(CCc1ccccc1)C(=O)c1cc(COc2cccc(C(F)(F)F)c2)on1 | . | 3.0
Cc1cc(C)c2c(c1)c1nnc(SCCN3CCOCC3)nc1n2C | . | -0.3
CCn1cc(CN2CCCC(CNS(=O)(=O)c3ccc(OC)cc3)C2)cn1 (stereo not drawn) | . | 0.1
CCN(CC(=O)Nc1ccc(C(C)=O)cc1)CC(=O)Nc1ccc2c(c1)OCCO2 | -1 | .
CC(C)(C)c1nnc(SCC(=O)Nc2ccc(N3CCCCC3)cc2)n1N | 0 | .
C#CCOCCOCCOCCNc1nc(N2CCN(C(=O)[C@H]([C@@H](C)CC)n3cc(CCCCN)nn3)CC2)nc(N2CCN(C(=O)[C@H]([C@@H](C)CC)n3cc(CCCN=C(N)N)nn3)CC2)n1 | 16 | .
COc1ccc(NC(=S)N2CCC(NC(=O)c3ccco3)CC2)cc1 | -25 | .
Cc1cccc(NC(=O)CSCC(=O)N2CCN(C(=O)c3ccco3)CC2)c1 | -2 | .
O=C(COC(=O)c1cc(S(=O)(=O)N2CCOCC2)ccc1F)Nc1cc([N+](=O)[O-])ccc1F | -7 | .
CNC(=O)c1[nH]cnc1C(=O)Nc1cccc(C)c1 | 36 | .
Cc1ccc(S(=O)(=O)Nc2ccc3c(c2)CC(=O)N([C@H](C)CO)C[C@@H](C)[C@H](CN(C)S(=O)(=O)c2ccccc2)O3)cc1 | -7 | .
CC(=O)Nc1ccc(S(=O)(=O)N(C)CC(=O)OCC(=O)c2ccc3c(c2)NC(=O)CO3)cc1 | -6 | .
O=C(COC(=O)c1cccc(Cl)c1)NCc1ccccc1 | -1 | .
O=C(COC(=O)c1c[nH]c2ccccc12)NC1CCCCC1 | 3 | .
Cc1cccc(C(C(=O)NC2CCCC2)N(C(=O)c2csnn2)C2CCCC2)c1 (stereo not drawn) | 3 | .
CC(=O)c1ccc(OCC(=O)Nc2ccc(N3CCCCC3)cc2)cc1 | 1 | .
CCCCCn1nc(C(=O)N(CC)c2c(N)n(CCCC)c(=O)[nH]c2=O)c2ccccc2c1=O | -3 | .
COc1cc(OC)cc(C(=O)Nc2ccc(Nc3ccccc3)cc2)c1 | 7 | .

Of the compounds above, these have a Cl atom.
SMILES | Mtb bLac sens | RecA intein inh
CSc1ccc(OCC(=O)Nc2ccc(N3CCOCC3)c(Cl)c2)cc1 | . | 0.2
COC(=O)c1cc(NC(=O)CSc2ncn[nH]2)ccc1Cl | . | 1.4
O=c1[nH]c(C2CCN(S(=O)(=O)c3cccc(Cl)c3)CC2)nc2c1nnn2Cc1ccccc1 | . | 6.1
Cc1nn2c(N3CCOCC3)cc(C(C)(C)C)nc2c1-c1ccc(Cl)cc1 | . | -1.5
O=C(CCN1C(=O)c2ccccc2S1(=O)=O)NCc1ccccc1Cl | . | 3.8
O=C1C(Cl)=C(N2CCCCCC2)C(=O)N1c1ccc(Br)cc1 | . | 17
O=C1CCc2cc(S(=O)(=O)NCCc3ccc(Cl)cc3)cc3c2N1CC3 | . | 0.6
O=C1CCC(C(=O)N2CCN(c3cnccn3)CC2)CN1CCc1ccc(Cl)cc1 (stereo not drawn) | . | 2.1
CC1CN(C(=O)c2ccc(CNS(=O)(=O)c3cccc(Cl)c3)cc2)CC(C)O1 (stereo not drawn) | . | -2.1
COc1ccc(C=O)c2[nH]c3c(Cl)ncnc3c12 | . | -1.0
Cc1cc(Cl)c2oc(C(=O)N(C)Cc3nccn3C)c(C)c2c1 | . | -3.5
CCOCCCNC(=O)c1cn2c3c(ccc(Cl)c3c1=O)OC(C)C2 (stereo not drawn) | . | 0.5
O=C(COC(=O)c1cccc(Cl)c1)NCc1ccccc1 | -1 | .

Screening results: PubChem BioAssay, several laboratories
